AID504770 = growth inhibitors of E. coli YBA685 in a screen for V. cholerae RctB (chromosome II replication) inhibitors | E. coli YBA685 rctB-dependent plasmid, OD600 growth, 3 h; hits give low values | z-score (concentration not given with the values) | actives 0.27% (n = 130,000) | AID 504770;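 active means z-score under -2 on both plates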;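 further: wells of about 30 µL received 100 nL stock; score is relative to mean and SD of the test wells; the first replicate is given; strong numbers were not always called active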
Ba CapD inh = CapD enzyme inhibition; purified CapD enzyme, fluorescence intensity read-out; hits give low values; some hits fall short of the stated cut; z-score (no concentration beside the values); actives 0.23% (n = 140,000); AID 492967;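 active means z-score under -4 in either of two replicates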;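 further: stock transfer was 100 nL into about 40 µL; score is relative to mean and spread of the plate; one replicate is shown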
An asterisk follows results filed as active; . = not tested or not shown.

A first look, 2 compounds:
Values in the order: AID504770 | Ba CapD inh
CCN(CC)S(=O)(=O)c1ccc(-c2cn3ccccc3n2)cc1
→ 0.05 | -0.085
Clc1cc(Cl)cc(C=NCc2ccccc2)c1
→ . | -1.4

Main list, repeating the preview:
Values in the order: AID504770 | Ba CapD inh
CCN(CC)S(=O)(=O)c1ccc(-c2cn3ccccc3n2)cc1
→ 0.05 | -0.085
Clc1cc(Cl)cc(C=NCc2ccccc2)c1
→ . | -1.4
O=C(c1noc2c1CCc1sccc1-2)N1CCCCC1
→ -1.1 | -1.7
CC1=CC(C)(C)C(C(=O)O)C(C(=O)O)C1 (centres undefined)
→ -0.95 | -0.14
C#CCOC(=O)Nc1ccc(Oc2ccc(Cl)cc2)nc1
→ -0.1 | 0.9
CC(C)C(Sc1nnc(-c2ccccc2)n1-c1ccccc1)C(=O)NC(N)=O (centres undefined)
→ -0.4 | .
Cc1ccc(CN2CC(C(=O)NC(c3nc4ccccc4[nH]3)C(C)C)CC2=O)cc1 (centres undefined)
→ 0.75 | .
CC(C)(C)C(=O)N1CCC(C(=O)NCc2ccco2)CC1
→ 0 | .
Nc1cnc(Sc2ccccc2)c(C(F)(F)F)c1
→ -0.3 | 5.2
CCOC(=O)c1cc(C)nn1-c1nc2ccc(Cl)cc2s1
→ . | 2.8
COc1ccccc1N(C)S(=O)(=O)c1ccc(C(=O)N=c2c3cnn(-c4ccccc4)c3nc3n2CCCCC3)cc1
→ 0.6 | .
CCc1cc2c3c(c(=O)oc2cc1OCC(=O)OC)CCCC3
→ -0.8 | 40
NC(=O)C1(c2ccccc2)CCCC1
→ -0.7 | .
O=C(Nc1ccc2oc(-c3cccnc3)nc2c1)c1cccc(OCc2ccccc2)c1
→ . | 18
Cn1c(=O)[nH]c(=O)c2cc(C(=O)c3cc(F)ccc3O)cnc21
→ 0.15 | .
Cc1nn(Cc2nnc(SCC(=O)C(C)(C)C)o2)c(C)c1Br
→ 0.15 | -0.52
O=C(OCc1cc(=O)oc2cc(O)ccc12)c1ccc(Br)o1
→ 2 | .
CCCSc1nnc(NC(=O)c2ccccc2Br)s1
→ -1 | -1
CC1CCN(C(=O)Nc2ccccc2C(F)(F)F)CC1
→ 0.5 | -0.12
Cc1cc(=O)[nH]n(-c2ccccc2)c1=O
→ -1.6 | 0.45
CNC(=O)c1ccccc1Sc1cccc2cccc(COC(C)=O)c12
→ -1 | -1.2
CCN1CCN(C(=O)c2ccc(-c3ccccc3)cc2)CC1
→ 1.4 | 1
COC(=O)CNC(=O)c1n[nH]c(=O)c2ccccc12
→ -0.2 | .
Cc1ccccc1-n1[nH]c(C)c(C=Nc2ccc(-c3ccc(N)cc3)cc2)c1=O
→ . | -0.3
COc1ccc(C)cc1-n1nnnc1Sc1nnnn1-c1ccccc1
→ 0.1 | .
COc1ccc(C(=O)N(c2ccccc2)C2C=CS(=O)(=O)C2)cc1 (centres undefined)
→ 0.4 | .
COc1ccc(OCC(CN(C)C2=NS(=O)(=O)c3ccccc32)OC(=O)c2ccc(OC)cc2)cc1 (centres undefined)
→ . | -0.015
CC(Sc1nnc(CNc2cccc(Cl)c2)n1CCc1ccccc1)C(=O)O (centres undefined)
→ 1.1 | .
COc1ccc(-c2nc(-c3cccc(OC)c3OC)[nH]c2-c2ccc(OC)cc2)cc1
→ . | 42
COc1ccc(N2CCN(C(=O)c3cc4ccccn4n3)CC2)cc1
→ -0.35 | -0.53

Next entries.
Values in the order: AID504770 | Ba CapD inh
C=CCNc1nc(-c2ccccc2)nc(-c2ccccc2)c1C#N
→ 2.4 | 0.085
CCOc1ccc(NC(=O)c2ccc3c(c2)N(Cc2ccc(C)cc2)CCS3)cc1
→ 0.4 | -0.82
Cc1cc(C)nc(NS(=O)(=O)c2ccc(NC(=O)c3ccc(S(=O)(=O)N4CCCCC4)cc3)cc2)n1
→ . | -0.68
CC1=CCC2C(=O)N(c3cccc(C(F)(F)F)c3)C(=O)C2C1 (centres undefined)
→ -0.25 | -0.43
CS(=O)(=O)N1CCCc2cc(C(=O)CSc3nnc(CN4CCCC4=O)o3)ccc21
→ -0.05 | .
Nc1ncnc2c1[nH]c(=S)n2CCOc1ccccc1
→ . | 0.02
O=C(O)c1ccc(C(=O)c2cc(C(=O)O)ccc2C(=O)O)cc1
→ 0.05 | .
CC1=NN(c2ccc(Cl)cc2)C(=O)C1CCOC(=O)c1nn(-c2ccccc2)nc1C (centres undefined)
→ 0.25 | -0.41
N#Cc1ccc(-c2ccc(OCC3CNC(=O)O3)cc2)cc1 (centres undefined)
→ -0.5 | .
Nc1nc(-c2ccc3c(c2)CCCC3)cc(C(F)(F)F)n1
→ 1 | 7.5
CCC(=O)Nc1ccccc1C(=O)NCC1CCCO1 (centres undefined)
→ 0.85 | .
COc1cccc(-c2nc3sc4c(c3c(=O)n2CC(=O)Nc2ccc(C)c(F)c2)CCCC4)c1
→ . | 12
O=C(CCCSc1nc(-c2ccco2)cc(C(F)(F)F)n1)Nn1cnnc1
→ -0.3 | .
O=C(N/N=C/c1ccc(OCc2cnc(Cl)s2)cc1)c1ccncc1
→ . | -1.1
O=C(/C=C/c1cccc(C(F)(F)F)c1)NNC(=O)OCCc1ccc(Br)cc1
→ . | 1.4
CCOC(=O)C1=C(C)NC2=C(C(=O)C(C(=O)OCC)C(c3cccc(OC)c3)C2)C1c1cccc(OC)c1 (centres undefined)
→ . | 9.2
CCOC(=O)/C=c1\[nH]c(=O)/c(=C\c2ccc3c(c2)OCO3)s1
→ 0.3 | .
CN(C)S(=O)(=O)c1ccc(C(=O)N2CCN(Cc3ccc4c(c3)OCO4)CC2)cc1
→ -0.05 | .
COc1c(Cl)cccc1-c1cn2ccc(C)cc2n1
→ -0.6 | 59
Cc1ccc(C)c(N(C)S(=O)(=O)c2ccc3[nH]cc(C(=O)N4CCC5(CC4)OCCO5)c(=O)c3c2)c1
→ . | 1.8
O=C(O)C1(S(=O)(=O)c2ccc(Br)cc2)CCCC1
→ -1.8 | .
COc1ccc(C2(O)C[N+]3=C(CCCCC3)N2c2ccc(Br)cc2)cc1 (centres undefined)
→ . | 0.24
O=C(Cn1cnc2c(nnn2Cc2ccc(Cl)cc2)c1=O)N1CCCc2ccccc21
→ -0.35 | 0.77
O=C(Oc1ccc2ccc(=O)oc2c1)N1CCOCC1
→ -0.65 | 2.7
Cc1cccc(OCC(O)Cn2cnc3ccccc32)c1 (centres undefined)
→ -0.6 | -0.84
COC(=O)c1cnc(NNS(=O)(=O)c2ccccc2)nc1C(F)(F)F
→ . | -0.32
COc1ccc(N2CCN(C(c3cccs3)C(C)NC(=O)c3ccccc3OC)CC2)cc1 (centres undefined)
→ -1.2 | 1.7
CC1Cc2ccccc2N1S(=O)(=O)c1cccc(C(=O)NCc2ccco2)c1 (centres undefined)
→ -0.25 | .
Cc1cc(C)nc(SCC(=O)c2ccc(O)cc2O)n1
→ -1.2 | -1
C=C(C)CSc1nc2c(C)cccc2[nH]1
→ -0.7 | -0.17

The results go on:
Values in the order: AID504770 | Ba CapD inh
N#Cc1nc2ccccc2[nH]1
→ -0.05 | .
O=C(Nc1cccc(CO)c1)C(F)(F)F
→ 0.75 | .
CN(C)CCSc1nnc2sc3ccccc3n12
→ 0.5 | 0.065
CCn1c(O)c(C=NCc2cccs2)c(=O)n(CC)c1=S
→ 1.3 | -1.1
CN(C)S(=O)(=O)c1ccc(=O)n(CC(=O)Nc2ccc3[nH]c(=O)[nH]c3c2)c1
→ -0.15 | .
CS(=O)(=NS(=O)(=O)c1cc(S(=O)(=O)c2ccccc2)cs1)c1ccc(Cl)cc1 (centres undefined)
→ -0.85 | -0.38
Nc1ncc(S(=O)(=O)Cc2cccs2)c(N)n1
→ -0.3 | -0.3
CC1(C)O[C@@H]2[C@@H](CO[C@@]3(COS(N)(=O)=O)OC(C)(C)O[C@@H]23)O1
→ 0 | .
Brc1ccc(-n2cccc2)cc1
→ -0.6 | -0.22
CCCCN(CCCC)Cc1c(C(=O)OC(C)C)nnn1-c1nonc1N
→ . | -0.17
Cc1cc(C)cc(NC(=O)CCC2=NS(=O)(=O)c3ccccc3N2)c1
→ -0.6 | 0.82
CCOc1ccc(/C=C2\SC(=N)N(c3ccc4c(c3)OCO4)C2=O)cc1OC
→ . | 0.14
O=c1[nH]cc(COCc2ccccc2)c(=O)[nH]1
→ -1.1 | -0.08
CNC(=O)/C(=C\c1ccc(OC)cc1)NC(=O)c1ccccc1
→ -0.6 | -0.55
FC(F)(F)c1cccc(N2CCNC2=S)c1
→ -0.35 | 66
CCOC(=O)c1sc2nc(SCC#N)n(Cc3ccccc3OC)c(=O)c2c1C
→ . | 1.1
N#Cc1cnn(S(=O)(=O)c2ccc(Cl)cc2)c1C1CC1
→ -0.9 | -0.44
O=C1c2ccccc2N(Cc2ccc(Cl)cc2)C2=NCCN12
→ -0.4 | .
CCN(CC)C(=O)c1cccc2c1C(=O)c1ccccc1-2
→ 2 | 0.18
C1=C(c2ccccc2)CCN(Cc2nnc(-c3ccco3)o2)C1
→ 1.6 | .
C=CCNC(=O)c1ccncc1
→ 2.1 | .
Cc1oc2cc(Br)c(OCC(=O)OCc3ccccc3)cc2c1C(=O)OC(C)C
→ . | 0.11
Cc1oc(C(C)(C)C)c(CN2CCOCC2)c1C(=O)O
→ 1 | 0.67
CCNCC(=O)Nc1ccc(S(N)(=O)=O)cc1
→ 1.9 | .
Nc1cccc(-c2nc3cc(Cl)ccc3o2)c1
→ -0.05 | 42
Cc1ccc(Cn2c(=O)n(Cc3ccccc3)c(=O)c3c4c(sc32)CCC4)cc1
→ -0.5 | -0.55
Cc1ccc(S(=O)(=O)Oc2ccc(C)nc2[N+](=O)[O-])cc1
→ . | -0.88
CCc1nn(CC(=O)N2CCC(C(N)=O)CC2)c(=O)c2cc3sccc3n12
→ 1.7 | -0.09
O=C(CCc1nc2cccnc2n1Cc1cccs1)NCc1ccc2c(c1)OCO2
→ 0.55 | 5.2
COc1ccc(Cl)cc1-n1c(SCc2ccccc2F)nnc1-c1cc2occc2n1C
→ -0.3 | 1.7

(continued)
Values in the order: AID504770 | Ba CapD inh
Cc1[nH]nc2c1C(c1cccc3ccccc13)CC(=O)N2 (centres undefined)
→ 1.4 | -0.67
CN(C)C(=O)c1ccccc1NS(=O)(=O)c1ccc(F)cc1
→ 0.9 | .
CCOC(OCC)n1c(=S)n(C(OCC)OCC)c2ccccc21
→ 0.75 | .
O=C(CCSCc1ccccc1F)NCc1cccnc1
→ 0.05 | 0.17
COc1ccccc1NC(=O)COC(=O)c1ccccc1Br
→ -1.1 | 0.33
CC(=O)NCc1c(N(C)C)cccc1N(C)C
→ 0.45 | 5.7
CC(O)C(Nc1ccccc1CC(=O)OC(C)(C)C)C(=O)O (centres undefined)
→ 0.5 | -0.48
CC(C)(C)NC(=O)CSc1ccc(Cl)cc1
→ -0.05 | 0.36
CC(C(=O)OCC(=O)c1ccccc1)N1C(=O)C2C3C=CC(C3)C2C1=O (centres undefined)
→ -0.8 | 1.4
O=C(COC(=O)c1ccc[nH]c1=O)NCC12CC3CC(CC(C3)C1)C2
→ 0.2 | .
COc1ccccc1CNC(=O)Cn1cccc1
→ -0.75 | 0.75
O=C(CSc1nc2ccccc2s1)Nc1ccc2nc(SCC(=O)N3CCOCC3)sc2c1
→ . | 0.26
O=C(O)COc1ccc(C2C3=C(CCCC3=O)OC3=C2C(=O)CCC3)cc1
→ 0.05 | 0.09
N#CC1=C(N)n2c(s/c(=C\c3cccc(Cl)c3Cl)c2=O)=C(C#N)C1c1cccc(Cl)c1Cl (centres undefined)
→ . | 0.025
CCCc1nc(=S)[nH][nH]1
→ 0.45 | .
CCCc1cc(=O)oc2cc(OCC)ccc12
→ -0.25 | 69
O=C(O)COc1ccc(C2SCCCS2)cc1
→ -0.2 | .
CC(C)(C)CC(=O)NCc1nc(-c2ccccc2)no1
→ -0.55 | 0.36
CCOc1ccc(N2C(=O)CSC2c2ccccc2[N+](=O)[O-])cc1 (centres undefined)
→ . | 0.29
Cc1cc(NC(=O)Nc2scc(S(=O)(=O)c3ccc(Cl)cc3)c2C)on1
→ 1.2 | -0.045
Cc1noc(C)c1COc1ccc2c(C)cc(=O)oc2c1
→ -0.2 | .
Cc1ccc(-c2nnn(CC(=O)C(C)(C)C)n2)cc1Cl
→ -0.2 | -0.66
NNC(=S)Nc1ccccc1Cl
→ -0.25 | 2
Cc1ccc(CNC(=O)CSc2nc3ccccc3c(=O)n2CC2CCC(C(=O)NCc3ccco3)CC2)cc1 (centres undefined)
→ . | -0.29
COc1ccccc1CNC(=O)CSc1nc2ccccc2n1S(=O)(=O)c1ccc(Br)cc1
→ . | -0.02
CC(C)(C)C(=O)CSc1nnc(Cc2ccccc2F)n1N
→ -0.35 | .
Cc1c(C(=O)NCCN(C)C)oc2ccc(S(=O)(=O)N3CCCC3)cc12
→ -0.8 | -0.36
Fc1ccc2c(c1)CN(c1ccccc1F)CO2
→ -1.6 | -0.41
Cc1nc2ccc(Br)cn2c1NC(C)(C)C
→ -0.65 | .
COc1ccc(NC(=O)CN2CCC(C)CC2)cc1
→ -1.1 | 0.14

Laid out differently: results already given
molecule | AID504770 | Ba CapD inh
Cc1ccccc1-n1[nH]c(C)c(C=Nc2ccc(-c3ccc(N)cc3)cc2)c1=O | . | -0.3
Cc1cc(C)nc(SCC(=O)c2ccc(O)cc2O)n1 | -1.2 | -1
CCOC(=O)c1sc2nc(SCC#N)n(Cc3ccccc3OC)c(=O)c2c1C | . | 1.1
NC(=O)C1(c2ccccc2)CCCC1 | -0.7 | .
COc1ccc(OCC(CN(C)C2=NS(=O)(=O)c3ccccc32)OC(=O)c2ccc(OC)cc2)cc1 (centres undefined) | . | -0.015
O=C(/C=C/c1cccc(C(F)(F)F)c1)NNC(=O)OCCc1ccc(Br)cc1 | . | 1.4
COc1cccc(-c2nc3sc4c(c3c(=O)n2CC(=O)Nc2ccc(C)c(F)c2)CCCC4)c1 | . | 12

Later entries
Values in the order: AID504770 | Ba CapD inh
Cc1cc(C(=O)CSc2nnc(N)s2)c(C)n1CCc1ccc(Cl)cc1
→ -0.15 | .
COc1ccccc1-n1cnnc1SCc1cccc(Cl)c1
→ -0.15 | .
CCCn1c(NCCCN(CC)CC)nc2ccccc21
→ 0.2 | 1.2
CN(C)/C=C\c1ccnc(-c2cc(/C=C\N(C)C)ccn2)c1
→ 0.05 | -0.75
